p53 HeLa = p53 stabilisation in HPV-positive human cells, imaging, p53-positive nuclei imaging, 24 h, 48 h (AID 1508601). hit rate 1% among 5,700. p53-positive nuclei, normalised, % at 11 µM unless noted. p53-positive nuclei imaging, 48 h; stronger effect = higher value; some inactives read as strong as hits;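 active = mean of two plates above 50% at 24 h or at 48 h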;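 note: HPV-positive HeLa cells with a fluorescent p53 stability reporter; 0% = vehicle and 100% = proteasome inhibitor control; doses worked out from stocks diluted about 900-fold with the highest of each compound shown; many of its hits are not listed in these tables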
p53 HeLa cells 24 h = further read-out of p53 HeLa, marked with its call; nuclei count, normalised, %; measured here: cell number at 24 h;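 100% = vehicle wells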
p53 HeLa p53 24 h = recorded beside p53 HeLa, whose call it bears; p53-positive nuclei, normalised, %; measured here: p53 positive nuclei at 24 h;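 0% = vehicle and 100% = positive control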
p53 HeLa cells 48 h = second read-out of p53 HeLa, no call of its own (marks repeat the call); nuclei count, normalised, %; measured here: cell number at 48 h;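 100% = vehicle wells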
Numbers without * were called inactive; [ ] = another dose, or the depositor's remark. These rows are one share of the data; rates above refer to the full screens.

Order of results – p53 HeLa, p53 HeLa cells 48 h, p53 HeLa p53 24 h, p53 HeLa cells 24 h
#1 CN(C)Cc1cccc(N=C(c2ccccc2)c2c(O)[nH]c3cc(C(N)=O)ccc23)c1
    -0.1, 97.2, -0.1, 96.6
#2 CC1(COc2ccc3c(c2)ncn3-c2ccc3cccc(N4CCC(N)CC4)c3n2)COC1
    1.4[3.7 µM], 85.1, 0.2, 82.0
#3 Cc1cc(-n2c(=O)[nH]c(=O)n(C)c2=O)ccc1Oc1ccc(SC(F)(F)F)cc1
    0.0[3.7 µM], 103.0, -0.3, 111.5
#4 COc1ccc(-n2c(SCCCN3C(=O)c4cccc5cccc(c45)C3=O)nnc2-c2ccncc2)cc1
    0.3[3.7 µM], 105.5, -0.2, 109.5
#5 Cc1cccc(-n2ncc(Cl)c(Cl)c2=O)c1
    9.1, 31.4, 7.5, 43.2
#6 COCCOc1nc(-c2ccc(Cl)c(Cl)c2)n(-c2ccc(NC(=O)CCl)cc2)n1
    0.4[3.7 µM], 100.3, 0.6, 89.6
#7 OCC1NCC(O)C(O)C1O (centres undefined)
    0.0, 109.5, 0.2, 106.1
#8 O=C(C=Cc1cccc(S(=O)(=O)Nc2ccccc2)c1)NO
    76.0*, 30.4*, 64.7*, 52.5*
#9 CC(C)NCCN(C(C)C)S(=O)(=O)c1ccc(Cl)cc1Cl
    0.0, 105.6, 0.3, 104.9
#10 COc1ccc2[nH]cc(CCNC(C)=O)c2c1
    -0.6[3.7 µM], 95.3, -0.3, 90.9
#11 CC(C)NCCCn1c(Sc2cc3c(cc2I)OCO3)nc2c(N)ncnc21
    -0.1[3.7 µM], 43.1, -0.4, 55.4
#12 Cc1cc(C#N)cc(C)c1Oc1nc(Nc2ccc(C#N)cc2)nc(N)c1Br
    -0.2[3.7 µM], 97.2, -0.5, 95.4
#13 CCOC(=O)CCNc1cc(N2CCc3ccccc3CC2)nc(-c2ccccn2)n1
    -0.6, 105.3, -0.2, 92.8
#14 COc1ccc(N2CCN(C(=O)c3cc4c(s3)-c3ccccc3S(=O)(=O)C4)CC2)cc1
    0.1, 108.8, -0.1, 121.7
#15 Cc1cc(C=CC#N)cc(C)c1Nc1ccnc(Nc2ccc(C#N)cc2)n1
    -0.1[3.7 µM], 102.5, -0.4, 107.2
#16 CCC(c1ccc(O)cc1)C(CC)c1ccc(O)cc1 (centres undefined)
    -0.3[3.7 µM], 108.1, -0.2, 106.5
#17 CC(=O)N1CCN(CCOc2ccc(C3CCN(C4=Nn5c(nnc5C(F)(F)F)CC4)CC3)cc2)CC1
    -0.2[3.7 µM], 108.6, -0.3, 118.6
#18 O=C1N[C@H]2C(O)C(O)C(O)C(CO)N2C1=O (some centres undefined)
    -0.1, 115.8, -0.1, 111.4
#19 NCC(=O)CCC(=O)O
    -0.2[3.7 µM], 117.1, -0.5, 120.6
#20 O=C1C(=O)N(Cc2ccc(Cl)c(Cl)c2)c2ccccc21
    -0.2[3.7 µM], 107.7, -0.4, 111.4
#21 COC(=O)C(NC(=O)c1cc(-c2ccccc2)nc2ccccc12)c1ccccc1 (centres undefined)
    0.1, 103.1, 0.1, 96.9
#22 CC(C)c1cc(-c2ccc(F)c3ccccc23)nc(N)n1
    -0.1[3.7 µM], 101.6, -0.5, 109.6
#23 CC(C)=CCC1=C(O)c2ccccc2C(=O)C1=O
    0.3, 76.8, 0.1, 92.9
#24 N#CCC(C1CCCC1)n1cc(-c2ncnc3[nH]ccc23)cn1 (centres undefined)
    -0.1, 113.4, -0.1, 103.0
#25 COc1ccc2c(Oc3ccc(NC(=O)c4c(C)n(CC(C)(C)O)n(-c5ccccc5)c4=O)cc3F)ccnc2c1
    -0.1, 94.5, 0.1, 94.3
#26 CC(C)(C)c1cc(C(C)(C)C)c(NC(=O)c2c[nH]c3ccccc3c2=O)cc1O
    0.1, 106.5, 0.3, 108.4
#27 O=C1C(Cl)=C(N2CCOCC2)C(=O)N1c1ccc(Cl)c(Cl)c1
    -0.1[3.7 µM], 94.6, -0.3, 94.0
#28 O=C(Nc1ccncc1)c1cc([N+](=O)[O-])ccc1Cl
    -0.3[3.7 µM], 100.1, -0.5, 96.0
#29 CCC(C)C(NC(=O)C(CCC(=O)O)NC(=O)C(CC(C)C)NC(=O)C1CN=C(C(N)C(C)C)S1)C(=O)NC1CCCCNC(=O)C(CC(N)=O)NC(=O)C(CC(=O)O)NC(=O)C(Cc2cnc[nH]2)NC(=O)C(Cc2ccccc2)NC(=O)C(C(C)CC)NC(=O)C(CCCN)NC1=O (centres undefined)
    -0.1[3.7 µM], 99.0, -0.2, 97.5
#30 COCC(c1ccc(C(F)(F)F)cc1)N1CCN(C2(C)CCN(C(=O)c3c(C)ncnc3C)CC2)CC1C (centres undefined)
    0.1, 105.7, 0.2, 97.5

12 entries from above, with bars between the fields:
nr | SMILES | p53 HeLa | p53 HeLa cells 48 h | p53 HeLa p53 24 h | p53 HeLa cells 24 h
6 | COCCOc1nc(-c2ccc(Cl)c(Cl)c2)n(-c2ccc(NC(=O)CCl)cc2)n1 | 0.4[3.7 µM] | 100.3 | 0.6 | 89.6
7 | OCC1NCC(O)C(O)C1O (centres undefined) | 0.0 | 109.5 | 0.2 | 106.1
8 | O=C(C=Cc1cccc(S(=O)(=O)Nc2ccccc2)c1)NO | 76.0* | 30.4* | 64.7* | 52.5*
9 | CC(C)NCCN(C(C)C)S(=O)(=O)c1ccc(Cl)cc1Cl | 0.0 | 105.6 | 0.3 | 104.9
10 | COc1ccc2[nH]cc(CCNC(C)=O)c2c1 | -0.6[3.7 µM] | 95.3 | -0.3 | 90.9
11 | CC(C)NCCCn1c(Sc2cc3c(cc2I)OCO3)nc2c(N)ncnc21 | -0.1[3.7 µM] | 43.1 | -0.4 | 55.4
12 | Cc1cc(C#N)cc(C)c1Oc1nc(Nc2ccc(C#N)cc2)nc(N)c1Br | -0.2[3.7 µM] | 97.2 | -0.5 | 95.4
13 | CCOC(=O)CCNc1cc(N2CCc3ccccc3CC2)nc(-c2ccccn2)n1 | -0.6 | 105.3 | -0.2 | 92.8
14 | COc1ccc(N2CCN(C(=O)c3cc4c(s3)-c3ccccc3S(=O)(=O)C4)CC2)cc1 | 0.1 | 108.8 | -0.1 | 121.7
15 | Cc1cc(C=CC#N)cc(C)c1Nc1ccnc(Nc2ccc(C#N)cc2)n1 | -0.1[3.7 µM] | 102.5 | -0.4 | 107.2
16 | CCC(c1ccc(O)cc1)C(CC)c1ccc(O)cc1 (centres undefined) | -0.3[3.7 µM] | 108.1 | -0.2 | 106.5
17 | CC(=O)N1CCN(CCOc2ccc(C3CCN(C4=Nn5c(nnc5C(F)(F)F)CC4)CC3)cc2)CC1 | -0.2[3.7 µM] | 108.6 | -0.3 | 118.6

The listing continues.
Order of results – p53 HeLa, p53 HeLa cells 48 h, p53 HeLa p53 24 h, p53 HeLa cells 24 h
#31 CCOC(=O)C(CCc1ccccc1)NC(C)C(=O)N1CCCC1C(=O)O (centres undefined)
    -0.2[3.7 µM], 87.8, -0.4, 90.7
#32 O=C(C=Cn1cnc(-c2cc(C(F)(F)F)cc(C(F)(F)F)c2)n1)NNc1cnccn1
    1.7, 38.1, 0.0, 82.6
#33 CCCCn1c(-c2ccccc2)nc(-c2ccccc2)c1CN(Cc1ccc2c(c1)OCO2)Cc1ccc2c(c1)OCO2
    -0.2, 105.8, -0.2, 113.4
#34 CC(C)(C)c1cc(C=C(C#N)C(N)=S)cc(C(C)(C)C)c1O
    -0.2[3.7 µM], 110.9, -0.5, 109.0
#35 CCOC(=O)c1ccc(NC2CCCCC2)c(N)c1
    -0.1[3.7 µM], 102.1, -0.3, 110.7
#36 O=C(NCCS(=O)(=O)c1ccc(C(F)(F)F)cn1)c1ccc(Cl)cc1
    -0.1[3.7 µM], 99.5, -0.3, 108.7
#37 CCOc1ccc2ccccc2c1C(=O)NC1C(=O)N2C(C(=O)O)C(C)(C)S[C@H]12 (some centres undefined)
    0.0[3.7 µM], 100.3, -0.2, 112.5
#38 CC=CCC=CCCC(=O)C1OC1C(N)=O (centres undefined)
    0.0, 98.0, 0.2, 92.9
#39 C[N+](C)(C)NCCC(=O)O
    0.0, 102.2, -0.2, 117.2
#40 Nc1ccc(C(=O)O)c(O)c1
    -0.2[3.7 µM], 111.0, -0.2, 115.0
#41 COc1ccc(S(=O)(=O)N2CCCCC2)cc1C
    0.1, 106.2, -0.1, 114.0
#42 CN(C(Cc1ccc(OS(=O)(=O)c2cccc3cnccc23)cc1)C(=O)N1CCN(c2ccccc2)CC1)S(=O)(=O)c1cccc2cnccc12 (centres undefined)
    -0.1, 107.1, -0.1, 98.8
#43 CC(=O)OCC(=O)[C@]12N=C(C)O[C@@H]1C[C@H]1[C@@H]3CCC4=CC(=O)C=C[C@]4(C)[C@@H]3C(O)C[C@@]12C (some centres undefined)
    -0.3[3.7 µM], 88.7, -0.5, 87.9
#44 Nc1ccn(C2CCC(CO)O2)c(=O)n1 (centres undefined)
    -0.1, 105.3, -0.2, 109.1
#45 Cc1cc(Nc2ccc(NC(=O)c3ccc(Nc4ccnc5ccccc45)cc3)cc2)nc(N)n1
    -0.2, 41.8, 0.3, 51.7
#46 COC(=O)C=CC(=O)OC
    -0.1, 92.2, -0.2, 87.3

High-throughput results from PubChem.
